Screening results from PubChem.
VDR inhibitor – Inhibitors of the vitamin D receptor (VDR): qHTS; Vitamin D3 receptor (Homo sapiens), P11473; VDR-SRC2-3 peptide fluorescence polarization, 2 h; Potency, µM, inactives show max response, negative = inhibition, actives largely listed as inhibitors; actives 0.93% (n = 400,000); active = well fitted inhibition curve with a large enough effect; inconclusive = small, poorly fitted or top-dose-only effect, or another doubt; inactive = no such curve, though single readings can be large or run the other way; note: series mostly up to about 120 µM
Target sequence (P11473 whole entry, looked up): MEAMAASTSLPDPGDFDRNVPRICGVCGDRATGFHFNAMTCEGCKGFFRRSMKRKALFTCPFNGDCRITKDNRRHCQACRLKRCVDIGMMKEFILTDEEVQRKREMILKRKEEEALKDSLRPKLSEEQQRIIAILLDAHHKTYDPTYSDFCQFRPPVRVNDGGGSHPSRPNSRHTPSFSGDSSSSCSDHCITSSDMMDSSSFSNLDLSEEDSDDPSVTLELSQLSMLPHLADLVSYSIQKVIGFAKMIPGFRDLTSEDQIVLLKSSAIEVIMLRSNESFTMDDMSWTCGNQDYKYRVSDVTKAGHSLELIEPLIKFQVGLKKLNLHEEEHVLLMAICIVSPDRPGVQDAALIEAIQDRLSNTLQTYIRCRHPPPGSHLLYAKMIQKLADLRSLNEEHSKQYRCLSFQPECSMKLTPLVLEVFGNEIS
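The screen uses fluorescence polarization to detect compounds that interfere with recruitment of the SRC2-3 coactivator peptide to VDR; plates are read after 2 h at room temperature.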
An asterisk follows results filed as active; & = joins results of further samples. % is set by controls: 0 for no effect and ±100 for the full control effect; potency is the fitted concentration of half-maximal effect. These rows are one share of the data. The share of hits here may be higher or lower than overall.

The first six entries (preview)
`CC(Cl)c1cc(-c2ncc(C(F)(F)F)cc2Cl)no1` (centres undefined) gave VDR inhibitor 28.5%.
For Cn1cc(Br)c(C(=O)NC(=S)N2CCN(c3ccccn3)CC2)n1 the results were VDR inhibitor -18.4%.
For Nc1nc(Nc2ccccc2)nc(NC2CCCCC2)c1[N+](=O)[O-] the results were VDR inhibitor -1.6%.
`CCOc1ncccc1C(=O)Nc1ccc2c(c1)OCCCO2` gave VDR inhibitor 13.1%.
c1ccc2[nH]c(CCCc3nc4ccccc4[nH]3)nc2c1 was read as VDR inhibitor -4.6%.
`Cc1ccc(C)c(NC(=O)CSC2=Nc3ccccc3N=C(c3ccc(F)cc3)C2)c1` gave VDR inhibitor 4.3%.

The listing (from the top)
`CC(Cl)c1cc(-c2ncc(C(F)(F)F)cc2Cl)no1` (centres undefined) gave VDR inhibitor 28.5%.
For Cn1cc(Br)c(C(=O)NC(=S)N2CCN(c3ccccn3)CC2)n1 the results were VDR inhibitor -18.4%.
For Nc1nc(Nc2ccccc2)nc(NC2CCCCC2)c1[N+](=O)[O-] the results were VDR inhibitor -1.6%.
`CCOc1ncccc1C(=O)Nc1ccc2c(c1)OCCCO2` gave VDR inhibitor 13.1%.
c1ccc2[nH]c(CCCc3nc4ccccc4[nH]3)nc2c1 was read as VDR inhibitor -4.6%.
`Cc1ccc(C)c(NC(=O)CSC2=Nc3ccccc3N=C(c3ccc(F)cc3)C2)c1` gave VDR inhibitor 4.3%.
CN(C(=O)CSc1ncnc2ccccc12)C1CCCCC1 was read as VDR inhibitor -13.8%.
For O=C(Nc1ccc2c(c1)OCO2)c1ccc(Br)o1 the results were VDR inhibitor 18.8%.
Screening Cc1ccc(NC(=O)c2cn3c4c(ccc(Cl)c4c2=O)OC(C)C3)cc1C (centres undefined) returned VDR inhibitor 22.6%.
Screening CCCCNS(=O)(=O)c1ccc2nc(-c3cccnc3)cc(C(=O)NCCC)c2c1 returned VDR inhibitor -3.5%.
For CC(C)NC(=O)c1ccc(-c2cc(C(F)(F)F)ccc2Cl)o1 the results were VDR inhibitor -3.2%.
`Cc1ccc(S(=O)(=O)N(OCc2ccccc2)C(C)C(=O)O)cc1` (centres undefined) gave VDR inhibitor -0.8%.
`Cc1ccc(Cn2nnc(C(=O)Nc3cc(C)ccc3C)c2N)cc1` gave VDR inhibitor 2.8%.
For CC(=O)N1C(=O)C2(C(C#N)=C(N)Oc3cc(C)oc(=O)c32)c2ccccc21 (centres undefined) the results were VDR inhibitor 6.0%.
Cc1cc(=O)oc(C)c1C(=O)OCC(=O)c1ccc2ccccc2c1 was read as VDR inhibitor 23.8%.
Screening COc1cccc(CC(NC(C)=O)C(=O)NC2CCN(c3nc(C)cc(C)c3C#N)CC2)c1 (centres undefined) returned VDR inhibitor 0.0%.
Cc1cccn2c(=O)c(C(=O)NC(C)c3ccccc3)cnc12 (centres undefined) was read as VDR inhibitor -16.0%.
COc1ccc2c(c1)c(C(=O)CN1CCOCC1)c(C)n2C was read as VDR inhibitor -5.3%.
`COc1ccc(NC(=O)c2ccc(S(=O)(=O)N3CC(C)CC(C)C3)cc2)cc1S(N)(=O)=O` (centres undefined) gave VDR inhibitor -18.9%.
For COc1ccc(N=C2C(=Nc3ccc(OC)cc3)N(c3ccc(OC)cc3)C(=S)N2C)cc1 the results were VDR inhibitor 4.0%.
For CCN(CC)CCNc1nc2nonc2nc1NCCN(CC)CC the results were VDR inhibitor 2.4%.
Screening CC(=O)Oc1ccc(-c2cccc(C(=O)Oc3ccccc3)c2)cc1 returned VDR inhibitor inconclusive.
For CCN(CC)S(=O)(=O)c1ccc(C(=O)Nc2c3c(nn2C(C)(C)C)CS(=O)(=O)C3)cc1 the results were VDR inhibitor 23.4%.
For Fc1ccc(OCc2nc3ccccc3s2)cc1 the results were VDR inhibitor -15.2%.
Screening COC(=O)c1ccc(Oc2nc(Nc3ccccc3)nc(N(C)C)n2)cc1 returned VDR inhibitor 12.2%.
For CC(=O)NCC(=O)N1CCC(n2nccc2NC(=O)CCCc2ccccc2)CC1 the results were VDR inhibitor -4.7%.
`Cc1nnc2n(c1=O)C(CS(=O)(=O)c1ccccc1)CS2` (centres undefined) gave VDR inhibitor 2.2%.
`N#Cc1cccc(C(=O)OCC(=O)N2CCCc3ccccc32)c1` gave VDR inhibitor 13.6%.
N#C/C(=C(/O)COC(=O)c1ccc(O)cc1)c1nc2ccccc2[nH]1 was read as VDR inhibitor -1.2%.
`CN(CC1CCCO1)S(=O)(=O)c1ccc(C(=O)Nc2nnc(-c3ccccc3)o2)cc1` (centres undefined) gave VDR inhibitor 0.5%.
`CN(C)S(=O)(=O)c1ccc(C(=O)Nc2ccn(C)n2)cc1` gave VDR inhibitor 22.9%.
For Cc1ccc(-n2nc3c(=O)n(CCCC(=O)NCCN4CCN(C)CC4)nc(C)c3c2C)cc1 the results were VDR inhibitor 10.9%.
Cc1ccc(C)c(OCC(=O)NNC(=O)c2ccc(=O)[nH]c2)c1 was read as VDR inhibitor -4.6%.
`O=C(CN1CCCCCC1=O)OCc1ncc(-c2ccccc2)o1` gave VDR inhibitor -2.5%.
`CC(C)(C)c1ccc(C(=O)N2CCC(C(=O)NCc3ccco3)CC2)cc1` gave VDR inhibitor -7.7%.
`O=C(COC(=O)C1CC2C=CC1C2)Nc1ccc([N+](=O)[O-])cc1` (centres undefined) gave VDR inhibitor -7.9%.
O=C(O)c1ccc(CN2C(=O)c3cccc4c([N+](=O)[O-])ccc(c34)C2=O)cc1 was read as VDR inhibitor 1.9%.
`O=C(CNS(=O)(=O)c1ccc(Cl)cc1)NC1CCCCC1` gave VDR inhibitor 8.1%.
For O=C1N=C(N2CCOCC2)S/C1=C\c1ccc(OS(=O)(=O)c2ccccc2)cc1 the results were VDR inhibitor 1.5%.
For O=S(=O)(c1ccccc1)c1nc(-c2ccc(Cl)cc2)oc1NCCCN1CCOCC1 the results were VDR inhibitor -9.8%.
For COc1cccc(CNS(=O)(=O)c2cc3c4c(c2)CCC(=O)N4CCC3)c1 the results were VDR inhibitor 0.9%.
COC(=O)/C(=N/Nc1ccc(C)cc1)N1CCCc2ccccc21 was read as VDR inhibitor -23.7%.
`Cc1ccc2nc(CCc3nc4ccc(C)cc4o3)oc2c1` gave VDR inhibitor inconclusive.
CCCc1nn2c(=O)c(C(c3cccc(Cl)c3)c3c(O)nc4sc(CCC)nn4c3=O)c(O)nc2s1 was read as VDR inhibitor 5.1%.
`COc1ccc(OCc2cc(C(=O)N3CCC(c4ccccc4)CC3)no2)c(Cl)c1` gave VDR inhibitor 0.7%.
`CCc1ccc2nc(SCC(=O)Nc3nnc(C)s3)c(C)cc2c1` gave VDR inhibitor -0.6%.
For CC(C)c1ccccc1NC(=S)NC(=O)C1CCCCC1 the results were VDR inhibitor -11.8%.
COc1ccc(Nc2ncc3c(n2)CCN(Cc2ccc(Br)s2)C3)c(OC)c1 was read as VDR inhibitor 1.1%.
Screening CCOc1ccc(N2C(=O)NC(Cc3c[nH]c4ccccc34)C2=O)cc1 (centres undefined) returned VDR inhibitor 9.0%.
CSc1nc2ccc(NC(=O)c3ccc(F)c(F)c3)cc2s1 was read as VDR inhibitor 4.5%.
Screening COc1ccc(/C(C)=N/OCC(=O)Nc2nc3ccccc3s2)cc1OC returned VDR inhibitor 15.5%.
Screening O=C(O)CSC(=S)N1CCCCC1 returned VDR inhibitor -17.8%.
Screening O=C(CC1C(=O)NCCN1Cc1c(F)cccc1Cl)NCCCN1CCCC1=O (centres undefined) returned VDR inhibitor -3.2%.
For CC1=C(C(=O)OC2CCCCCCC2)C(c2cc3c(cc2Br)OCO3)CC(=O)N1 (centres undefined) the results were VDR inhibitor 11.5%.
For Cc1cc(C)cc(OCC(=O)OCC(=O)NC2CCCCCCC2)c1 the results were VDR inhibitor -15.4%.
CCc1ccc(/C=N/n2c(C)cc(C)c(C#N)c2=O)cc1 was read as VDR inhibitor -13.4%.
Screening O=C(O)/C=C\C(=O)Nc1ccccc1N1CCN(c2ccccc2)CC1 returned VDR inhibitor -16.6%.
For COCc1ccc(CN2CCCC(C(=O)Nc3ccc(-c4cccc(OC)c4)cc3)C2)o1 (centres undefined) the results were VDR inhibitor -3.8%.
Screening O=C(O)C1C2CCC(C2)C1C(=O)Nc1cc(F)ccc1F (centres undefined) returned VDR inhibitor 18.1%.
Screening CCN(CC)CC(=O)Nc1ccc(/C(C)=N/NC2=NCCN2)cc1 returned VDR inhibitor -0.4%.
COc1ccc(NC(=O)CSc2nnc(Cc3cccn3C)n2-c2ccc(F)cc2)cc1OC was read as VDR inhibitor inconclusive.
For CCOc1ccc(CNC(=O)CCC(=O)N2Cc3ccccc3Oc3ncccc32)cc1 the results were VDR inhibitor -16.5%&10.4%.
`CC(C)=CCC/C(C)=C/CNC(=O)CC1C[C@H](C(=O)N(C(C)C)C(C)C)[C@@]2(C)c3[nH]c4ccccc4c3CCN2C1=O` (some centres undefined) gave VDR inhibitor 4.5%.
CN(C)CCNC(=O)C(=O)NCC1CCCN1S(=O)(=O)c1cccs1 (centres undefined) was read as VDR inhibitor -7.5%.
CCOC(=O)c1cccc(NC(=O)Cn2c(=O)c3cccn3c3ccccc32)c1 was read as VDR inhibitor 2.1%.
Screening COCCCN(Cc1cccs1)S(=O)(=O)c1csc(C(N)=O)c1 returned VDR inhibitor -8.2%.
For O=C1N=C(N2CCN(Cc3ccccc3)CC2)S/C1=C/c1cccs1 the results were VDR inhibitor 5.2%.
For Cc1cc(-c2nc(C)c(-c3nnc(SCC(=O)Nc4ccccc4)n3C)s2)no1 the results were VDR inhibitor 4.1%.
`Cc1cc(N)n(-c2ccc(S(=O)(=O)c3ccc(C(C)C)cc3)cc2)n1` gave VDR inhibitor 15.4%.
`Cc1ccc(C(=O)Nc2ccccc2C(=O)O)cc1S(=O)(=O)NCc1ccccc1` gave VDR inhibitor 5.8%.
For O=C(COC(=O)CN1C(=O)COc2ccccc21)NCc1ccc(F)cc1 the results were VDR inhibitor -12.1%.
For O=C(NC1C2CC3CC(C2)CC1C3)c1ccc(N2CCNCC2)c([N+](=O)[O-])c1 (centres undefined) the results were VDR inhibitor 13.0%.
`Cc1ccc(C(=O)CNc2ccc(C)c(Cl)c2)cc1` gave VDR inhibitor -7.6%.
Screening CC(=O)N1CCN(S(=O)(=O)c2ccc(S(=O)(=O)NCC(C)C)cc2)CC1 returned VDR inhibitor -15.6%.
Screening O=C(C(=O)N1CCc2ccccc2C1)c1cn(CC(=O)N2CCCCC2)c2ccccc12 returned VDR inhibitor -14.2%.
Screening COc1cc(NC(=O)CN(C)Cc2ccc(OC(F)F)cc2)c(C)cc1[N+](=O)[O-] returned VDR inhibitor -13.1%.
`COc1ccccc1/C=C/C(=O)N1CCN(S(=O)(=O)c2cc(C)ccc2C)CC1` gave VDR inhibitor -11.4%.
COC(=O)c1cc(CSC(=N)N)ccc1OCCC(C)C was read as VDR inhibitor 3.8%.
Screening Cc1ccc(NC(=O)c2oc3ccccc3c2NC(=O)c2ccc(F)c(F)c2)cc1 returned VDR inhibitor -10.4%.
`CCN(CC)C(=O)C(C)N(C#N)c1nc(SC)nc(N(C)C)n1` (centres undefined) gave VDR inhibitor 5.5%.
For CCC(CC)c1nnc(NC(=O)c2ccc3ccccc3n2)s1 the results were VDR inhibitor -13.2%.
`CN1CCN(c2ccc(S(=O)(=O)Nc3ccccc3)cc2[N+](=O)[O-])CC1` gave VDR inhibitor -24.2%.
`C[N+]1(C)CC2=Cc3ccccc3CC2C1` (centres undefined) gave VDR inhibitor -8.4%.
`O=C(COC(=O)c1ccc(S(=O)(=O)NCc2ccco2)cc1)Nc1ccccc1` gave VDR inhibitor 13.4%.
`Cc1nc(=O)c(-c2ccccc2)c(C)n1-c1cccc(C(=O)O)c1` gave VDR inhibitor -7.4%.
Screening CCN(CC)C(=O)OCc1c(-c2cccc(OC)c2)ncc2ccccc12 returned VDR inhibitor -12.1%.
Screening COc1ccc(N(C)C(=O)Nc2ccc3c(c2)nnn3C)cc1 returned VDR inhibitor 3.2%.
`COc1cc(S(=O)(=O)Nc2cccc3cn[nH]c23)c(OC)cc1Cl` gave VDR inhibitor 1.1%.
COc1cccc(OC)c1OCCCOc1ccc([N+](=O)[O-])cc1Cl was read as VDR inhibitor -22.3%.
`COc1cc(C(=O)OCC(=O)NC(C)CCc2ccccc2)cc(OC)c1OC` (centres undefined) gave VDR inhibitor 4.8%.
Screening CCOC(=O)CN1C(=O)/C(=C/c2ccccc2Br)Oc2ccccc21 returned VDR inhibitor 12.5%.
Screening Cn1c(=O)[nH]c(Nc2ccc(F)cc2)c([N+](=O)[O-])c1=O returned VDR inhibitor 8.9%.
For COc1cc(NC(=O)CSc2nnc3c(C)cc4cc(C)cc(C)c4n23)c(C(=O)O)cc1OC the results were VDR inhibitor 8.8%.
O=C(CCNC(=O)c1ccccc1)OCC(=O)c1ccccc1 was read as VDR inhibitor 12.8%.
Screening COc1ccccc1OCCCn1c(=O)oc2ccc(C)cc21 returned VDR inhibitor -15.8%.
For CC1CCCN(C(=O)COC(=O)c2cc(-c3cccs3)nn2-c2ccccc2)C1 (centres undefined) the results were VDR inhibitor -8.1%.
CC(=O)N[C@H]1[C@H](OC2CCCCC2)O[C@H](COC(C)=O)[C@@H](OC(C)=O)[C@@H]1OC(C)=O was read as VDR inhibitor 19.5%.
`CCOc1nc2cnccc2n(CC(=O)Nc2c(F)c(F)cc(F)c2F)c1=O` gave VDR inhibitor -25.3%.
For COc1ccc2nc(NS(=O)(=O)c3ccc(C)cc3)c(Nc3cc(Cl)ccc3OC)nc2c1 the results were VDR inhibitor -8.4%.
`CC(=O)NC(c1cc(F)c2cccnc2c1O)C1CC1` (centres undefined) gave VDR inhibitor -11.8%.

Nothing new here: 3 of the compounds above.
`CCOc1nc2cnccc2n(CC(=O)Nc2c(F)c(F)cc(F)c2F)c1=O` gave VDR inhibitor -25.3%.
For COc1ccc2nc(NS(=O)(=O)c3ccc(C)cc3)c(Nc3cc(Cl)ccc3OC)nc2c1 the results were VDR inhibitor -8.4%.
`CC(=O)NC(c1cc(F)c2cccnc2c1O)C1CC1` (centres undefined) gave VDR inhibitor -11.8%.
